Screens deposited in PubChem by several laboratories.
B2AR ag = activates human beta-2 adrenergic receptor causing internalization; P07550; Am2.2-beta2AR cells, FAP receptor internalization, flow cytometry; reference of the scale not given here; response, % (test concentration not listed); 0.43% of 340,000 active; AID 504454;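 active = response above a set limit, near 3 SD of response in nonfluorescent compounds, cut at about 42% in these data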;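 note: stock transfer was 100 nL into about 11 µL; a reference agonist was the positive control; negative values mostly stem from fluorescent compounds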
Target sequence (P07550 whole entry, looked up): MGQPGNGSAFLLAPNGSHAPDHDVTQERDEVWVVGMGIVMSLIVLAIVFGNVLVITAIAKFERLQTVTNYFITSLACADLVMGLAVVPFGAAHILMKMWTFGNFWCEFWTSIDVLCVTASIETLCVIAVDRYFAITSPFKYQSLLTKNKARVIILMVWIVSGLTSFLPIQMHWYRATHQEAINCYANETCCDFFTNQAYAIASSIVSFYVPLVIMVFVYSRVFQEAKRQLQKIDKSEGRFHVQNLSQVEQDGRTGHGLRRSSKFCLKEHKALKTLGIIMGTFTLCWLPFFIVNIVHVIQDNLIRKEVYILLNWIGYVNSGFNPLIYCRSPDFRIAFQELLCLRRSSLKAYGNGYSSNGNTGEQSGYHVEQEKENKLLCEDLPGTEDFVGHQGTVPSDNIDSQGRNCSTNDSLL
Bfl-1 A1 inh = inhibitors of the anti-apoptotic protein A1, read as caspase activation | MEF A1-2A-BIM cells, Caspase-Glo 3/7 luminescence, 3 h; percent of clofoctol response, vehicle zero | caspase activation, % (concentration not given with the values) | 0.066% of 330,000 active | AID 2462;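 active = over half of replicate activation scores above 10%, or exactly half above 10 with the replicate mean above 10; inconclusive = replicate mean below 10 yet half the replicates above 10; inactive = over half of replicates below 10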;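 note: wells of about 30 µL received 50 nL stock; many hits fall short of the cut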
RanGTP-Impb inh = disruptors of Ran-importin-beta complex formation – biochemical, FRET, CFP-Ran, YFP-importin-beta, homogeneous, primary screen; cell-free CFP-Ran/YFP-importin-beta FRET ratio; inhibition, % (test concentration not listed); 1.1% of 300,000 active; AID 2216;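 active = most replicates above 15%; inconclusive = exactly half above 15%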;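 note: 0% = DMSO wells and 100% = Ran loaded with GDP instead of GTP; wells of about 40 µL received 100 nL stock; the first replicate is given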
LANA-H2A inh = blocks KSHV LANA binding to histone H2A/H2B | inhibition, % (no concentration beside the values) | cell-free LANA-H2A/H2B peptide, fluorescence polarization | 0.6% of 320,000 active | Q9QR71 | AID 2629; in the data active = inhibition mostly above about 10%, no sharp cut-off; inactive = mostly below about 6.7%;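 note: stock transfer was 7.5 nL into about 10 µL; 0% = median of vehicle wells and 100% = median of positive control wells; one replicate is shown; the record names a cut of 25% in any replicate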
T cruzi repl = blocks replication of Trypanosoma cruzi; T. cruzi beta-gal in NIH3T3, luminescence, 90 h; inhibition, % (test concentration not listed); 1.4% of 300,000 active;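 active = mean inhibition across valid replicates above about 55%, limit read from the data; inconclusive = mean below that limit but half or more replicates reach it; inactive = mean below it, under half of replicates reach it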;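 note: signal also drops with host cell toxicity which is not excluded here; 0% = plate median of DMSO wells and 100% = zero luminescence signal; higher percent means less beta-gal luminescence so fewer parasites; stock transfer was 50 nL into about 50 µL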
UCH37 inh = human UCH37 deubiquitinating enzyme inhibition | purified proteasome/UCH37, Ub-AMC cleavage fluorescence | 0.33% of 330,000 active | AID 588478 | inhibition, % (concentration not given with the values) | Q9Y5K5;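 active = mean of two replicates above 20%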;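 note: 0% = compound-free wells with enzyme and 100% = wells lacking proteasome; stock transfer was 100 nL into about 20 µL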
Target sequence (Q9Y5K5 whole entry, looked up): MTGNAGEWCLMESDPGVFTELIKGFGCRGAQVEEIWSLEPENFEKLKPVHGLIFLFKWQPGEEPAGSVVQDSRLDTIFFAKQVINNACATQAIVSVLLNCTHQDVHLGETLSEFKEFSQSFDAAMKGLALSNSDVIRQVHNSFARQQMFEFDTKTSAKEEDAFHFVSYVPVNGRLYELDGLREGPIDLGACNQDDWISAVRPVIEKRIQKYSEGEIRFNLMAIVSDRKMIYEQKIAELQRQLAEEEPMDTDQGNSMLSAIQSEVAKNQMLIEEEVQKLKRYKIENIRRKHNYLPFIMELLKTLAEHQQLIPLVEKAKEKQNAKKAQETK
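Material: Human UCH37 enzyme supplied as purified proteasome complex | Schedule: 30 min preincubation with enzyme, 25 min cleavage at room temperature | Detection: AMC fluorescence 355/460 nm | Measure: % inhibition of Ub-AMC cleavage fluorescence | Controls: Wells without proteasome as full block, compound-free enzyme plus substrate as uninhibited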
Beta cell apopt = beta cell apoptosis inhibition. AID 435005. protection from apoptosis, % (concentration not given with the values). 0.8% of 300,000 active. INS-1E cytokine-induced death, ATP luminescence, 48 h; percent of positive-control rescue, neutral wells zero;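 active = all replicates at 75% or more, or half of them and the mean; inconclusive = half reach 75% but not the mean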;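 note: 0% = cytokine-treated negative control wells and 100% = positive control rescue; higher means more ATP so stronger rescue from cytokine killing; wells of about 40 µL received 100 nL stock; the first replicate is given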
Calb FLC = affects C. albicans growth with fluconazole. C. albicans CaCi-2 (fluconazole-resistant clinical isolate) + fluconazole, Alamar Blue growth, 48 h. growth inhibition, % (concentration not given with the values). AID 1979. 0.57% of 300,000 active;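 active = most replicates above 75%; inconclusive = exactly half above 75%; inactive = most below 75%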;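 note: all wells also contain fluconazole at 8 µg/ml as a sub-toxic cotreatment; 0% = median of DMSO wells and 100% = median of geldanamycin control wells; wells of about 8 µL received 7.5 nL stock; the first replicate is given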
* hit, by the source's call; i = inactive; ? = inconclusive; . = no result given.

Preview, 2 compounds:
#	SMILES	B2AR ag	Bfl-1 A1 inh	RanGTP-Impb inh	LANA-H2A inh	T cruzi repl	UCH37 inh	Beta cell apopt	Calb FLC
1	CCC1C(=O)NCCN1C(=O)c1ccc(OC)c(OC2CCN(C(C)=O)CC2)c1 (stereo not given)	-5.0	0.0	?	-4.1	-10.9	2.9	-5.6	0.7
2	COc1cc(NC(=O)COC(=O)Cc2ccsc2)cc(OC)c1	30.1	1.3	.	-1.4	.	4.2	0.0	.

All compounds of this part (from the top)
#	SMILES	B2AR ag	Bfl-1 A1 inh	RanGTP-Impb inh	LANA-H2A inh	T cruzi repl	UCH37 inh	Beta cell apopt	Calb FLC
1	CCC1C(=O)NCCN1C(=O)c1ccc(OC)c(OC2CCN(C(C)=O)CC2)c1 (stereo not given)	-5.0	0.0	?	-4.1	-10.9	2.9	-5.6	0.7
2	COc1cc(NC(=O)COC(=O)Cc2ccsc2)cc(OC)c1	30.1	1.3	.	-1.4	.	4.2	0.0	.
3	Cn1ccnc1SCC(=O)Nc1ccc2c(c1)OC(F)(F)O2	.	-0.9	0.9	-3.1	-3.1	.	-3.5	0.8
4	N#CCN1C(=S)N=C(Nc2cccc(Cl)c2)C12CCCCC2	4.4	0.0	6.6	-1.5	-31.6	2.6	2.4	-1.7
5	O=C(NCc1ccccc1)N1CCN(c2ccccc2F)CC1	6.5	0.6	-0.8	.	-2.7	7.1	-4.2	21.0
6	O=C(Cn1nc(CNc2ccc(Cl)cc2)[n+]2c1CCCCC2)c1ccccc1	-3.5	0.1	-1.8	1.5	17.8	6.8	4.3	-53.1
7	COC(=O)c1ccc(NC(=O)CN2C(=O)NC3(CCC(C)CC3)C2=O)cc1 (stereo not given)	-5.5	0.5	.	0.4	.	-0.2	-5.4	.
8	CCCC(=O)Nc1ccc(NCc2ccc(C)s2)cc1	4.0	-0.6	-6.6	-3.9	3.4	2.2	4.9	-0.6
9	CCOC(=O)C1Cn2c(nc3c(c2=O)C2(CCCC2)Cc2ccccc2-3)S1 (stereo not given)	27.2	0.0	.	1.0	.	-14.1	-7.7	.
10	CCCCn1nnnc1NCc1ccc(C)cc1	.	0.8	2.8	-7.6	-9.7	3.5	.	1.7
11	O=C(O)C1=C[C@@H](c2ccc(F)cc2)C[C@@H](OCCCCO)O1	-0.1	-0.7	-3.3	-0.6	-14.8	0.7	-11.2	2.5
12	CC(C)c1ccc(N(C(=O)CNC(=O)c2ccco2)C(C(=O)NC2CCCC2)c2cccnc2)cc1 (stereo not given)	-9.5	-0.7	-0.6	0.6	-0.8	5.8	0.1	-5.3
13	Cc1nnc(SCc2ccccc2)[nH]c1=O	1.1	0.5	1.6	-4.6	-12.2	2.6	4.1	-23.7
14	COC(=O)C1=C(N)Oc2cc(C)n(Cc3cccnc3)c(=O)c2C1c1cccc(OC)c1OC (stereo not given)	-4.5	-0.1	1.1	1.9	0.3	3.4	-4.7	2.2
15	O=C(c1cccc(S(=O)(=O)N2CCCCC2)c1)N1CCOCC1	5.2	-0.1	3.6	-3.2	-11.0	4.0	-3.4	-12.7
16	CC1=NN(c2ccccc2)C(=O)/C1=C\C=C\c1ccccc1	34.9	-0.9	?	1.6	-4.5	.	38.7	2.9
17	Cc1ccc(-c2c(C#N)c(N)n(-c3ccccc3)c(=O)c2C#N)cc1	-0.1	1.0	-1.1	0.7	-0.2	-29.0	-2.0	5.4
18	CCOc1ccc(OCc2ccc(C(=O)NN)o2)cc1	-1.1	-0.9	-4.3	1.7	-1.2	6.1	1.5	-10.8
19	CCn1c(SCC(=O)N2CCCCC2)nnc1-c1ccc(S(=O)(=O)N2CCN(C)CC2)cc1	6.6	0.1	3.3	1.3	-5.0	-0.9	-17.6	-1.2
20	COc1ccc(N2C3=[N+](CCCC3)CC2(C)O)cc1 (stereo not given)	-3.9	1.1	?	0.5	-28.2	-0.6	-3.3	-34.1

At a glance, part of the list above:
#	SMILES	B2AR ag	Bfl-1 A1 inh	RanGTP-Impb inh	LANA-H2A inh	T cruzi repl	UCH37 inh	Beta cell apopt	Calb FLC
1	CCC1C(=O)NCCN1C(=O)c1ccc(OC)c(OC2CCN(C(C)=O)CC2)c1 (stereo not given)	-5.0	0.0	?	-4.1	-10.9	2.9	-5.6	0.7
2	COc1cc(NC(=O)COC(=O)Cc2ccsc2)cc(OC)c1	30.1	1.3	.	-1.4	.	4.2	0.0	.

Remaining list, next part.
#	SMILES	B2AR ag	Bfl-1 A1 inh	RanGTP-Impb inh	LANA-H2A inh	T cruzi repl	UCH37 inh	Beta cell apopt	Calb FLC
21	COc1ccccc1/C=C/C=N/n1c(-c2ccccc2)n[nH]c1=S	8.3	1.5	1.2	-4.1	-3.5	.	0.3	-0.5
22	Cc1ccc(NC(=O)CSc2ccc(-c3ccc(-n4cccn4)cc3)nn2)c(C)c1	-20.9	-0.4	1.7	-4.3	-7.8	-1.5	-3.0	-5.2
23	O=S(=O)(Nc1nccs1)c1ccc(NS(=O)(=O)c2c(F)cc(F)c(Cl)c2F)cc1	-1.9	0.5	.	-1.2	.	2.6	-10.1	.
24	COc1cc(C(c2c(C)[nH][nH]c2=O)c2c(C)[nH][nH]c2=O)cc([N+](=O)[O-])c1O	-5.0	1.1	?	-1.1	-7.9	8.7	.	-2.7
25	COc1ccccc1Nc1nc(NCCCCO)nc(N2CCCC2)n1	-0.8	0.0	-0.4	-2.7	12.6	0.8	1.1	1.3
26	C=CCNCC(=O)Nc1ccccc1SCC(=O)Nc1ccsc1C(=O)OC	21.6	-0.3	-0.7	4.5	0.1	-0.4	-9.1	-13.0
27	O=C1CCC(C(=O)OCC(=O)Nc2ccc(Cl)cc2C(F)(F)F)=NN1	-2.3	0.1	.	-1.9	.	-2.2	2.0	.
28	CCC(=O)N1CCC(NC(=O)Nc2ccc(OC(F)(F)F)cc2)CC1	-2.4	-1.0	.	-1.8	.	5.2	-11.7	.
29	COC(=O)c1sc2cc(C(F)(F)F)cnc2c1-c1ccccn1	-6.1	0.3	-2.6	-3.0	-9.4	3.3	-6.1	?
30	CCOc1cc(/C=N/NC(=O)OC)ccc1OCCSc1ccc(Cl)cc1	-8.3	-0.6	-1.3	-2.1	18.6	.	-2.9	1.0
31	CCc1ccc(S(=O)(=O)Nc2ccc(-c3ccc4nncn4n3)cc2)s1	7.1	-0.4	0.1	-3.6	-2.2	3.5	.	10.2
32	CC(=O)NC(C)c1ccc(Cl)c(Cl)c1 (stereo not given)	-6.4	0.8	2.5	-2.4	-13.1	7.4	.	4.3
33	O=C1C=C(c2cc3ccccc3s2)CCC1	-2.2	-6.3	2.2	0.2	-9.2	3.9	-1.0	-13.7
34	COC(=O)CCC(=O)NC(=S)Nc1ccc(S(=O)(=O)Nc2cc(OC)nc(OC)n2)cc1	-3.3	-0.1	7.6	11.9	-25.4	5.2	-4.1	17.6
35	Cc1ccc(C2=N/C(=C\N3CCCCC3)C(=O)O2)cc1	5.3	0.2	9.3	-3.0	-0.7	15.5	.	-17.0
36	COc1ccc(N=c2oc3cc(O)ccc3cc2C(=O)Nc2ccccn2)cc1OC	16.4	0.2	5.1	2.0	-14.0	-70.3	1.8	-1.0
37	O=C(Nc1ccc(F)cc1)OCCOc1ccc(Br)cc1	-0.9	1.9	-2.3	-1.9	-13.8	2.5	1.2	-7.9
38	COc1ccc(N(C(=O)COc2ccccc2)C2C=CS(=O)(=O)C2)cc1 (stereo not given)	8.0	0.2	1.2	7.1	-4.6	1.3	2.4	0.1
39	COc1ccccc1N(CC(=O)N1CCc2ccccc2C1)S(C)(=O)=O	-0.2	-0.2	-0.8	1.5	7.7	0.7	-10.6	-4.0
40	O=C(Nc1ccc(OC(F)F)c(Cl)c1)c1cccc(OC(F)F)c1	4.9	-2.1	?	-5.6	39.0	3.7	3.4	-4.4
41	CC(C)(C)C1CCC(C(=O)NNC(=O)c2ccncc2)CC1 (stereo not given)	7.8	-1.1	1.5	4.9	-17.5	2.3	.	-2.5
42	CC1(C)Cc2c(sc3nc(SCC(=O)NCc4ccco4)n(-c4ccccc4)c(=O)c23)CS1	21.4	0.1	1.9	-1.2	35.7	-0.2	3.2	-3.1
43	CCc1nnc(NC(=O)C2CC(=O)N(C3CCCC3)C2)s1 (stereo not given)	-9.1	0.5	0.1	13.6	0.2	1.1	-2.3	3.5
44	CC(C)CCNC(=O)c1cc(-c2ccco2)nc2ccccc12	-12.1	-0.2	-0.4	2.4	1.7	i	.	-3.2
45	Cc1cccc(N2C(=O)C(O)=C(C(=O)c3cccs3)C2c2ccccc2)n1 (stereo not given)	0.5	-0.4	0.7	2.5	11.4	10.0	-3.9	59.8
46	CC(OC(=O)c1ccc2ncsc2c1)C(=O)NC1CCCCC1C (stereo not given)	-4.9	-0.1	1.4	-8.3	-9.1	1.8	3.4	-2.8
47	Cc1ccc(CNC(=S)Nc2ccc(C)c([N+](=O)[O-])c2)cc1	-2.7	-0.7	1.5	-3.1	-3.5	2.2	-3.9	-3.3
48	COc1cc2ccccc2cc1C(=O)OCC(=O)N1CCOCC1	-3.3	0.5	-0.7	2.5	-6.6	-75.2	-2.3	-19.2
49	CC(C)(Oc1ccc(Cl)cc1)C(=O)Nc1ccc(S(=O)(=O)Nc2ncccn2)cc1	4.3	-0.9	0.6	3.5	1.3	4.0	-3.6	-3.1
50	O=C(c1ccc(F)c(F)c1)N1CCCc2ccccc21	-2.9	-1.4	0.5	0.8	1.8	0.1	0.6	-6.9
51	CC(C)NC(=O)COC(=O)c1ccc(Cl)c(S(=O)(=O)N2CCCC2)c1	-2.0	1.2	-1.3	-1.9	0.9	5.5	3.2	-3.8
52	N#Cc1nc(-c2ccccc2)oc1N1CCCCC1	-5.9	-0.5	-2.6	-1.6	14.5	-161.2	4.6	-9.7
53	CC(=O)c1cccc(NC(=O)N2CCC(c3nnc(SCC(N)=O)n3C)CC2)c1	-5.2	1.0	-2.6	1.7	-6.7	3.2	-2.4	-3.9
54	COc1ccccc1CNS(=O)(=O)c1cc(C)ccc1OC	-0.9	-0.9	-2.4	-7.6	7.4	.	-4.7	19.6
